# Assay outcomes deposited in PubChem by ICCB-Longwood Screening Facility, Harvard Medical School.
# CapD inh: blocks the Bacillus anthracis CapD enzyme | purified CapD enzyme, fluorescence intensity read-out; active compounds read low; some hits fall short of the stated cut | z-score (test concentration not listed) | 140,000 compounds, 0.23% hits | AID 492967;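 active = z-score under -4 in either of two replicates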;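 also: stock transfer was 100 nL into about 40 µL; score is relative to mean and spread of the plate; one replicate is shown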
# AID504770: E. coli YBA685 growth inhibition, screen for V. cholerae RctB inhibitors | E. coli YBA685 rctB-dependent plasmid, OD600 growth, 3 h; active compounds read low | z-score (test concentration not listed) | 130,000 compounds, 0.27% hits;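 active = z-score under -2 on both plates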;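 also: wells of about 30 µL received 100 nL stock; score is relative to mean and SD of the test wells; the first replicate is given; strong numbers were not always called active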
# An asterisk follows results filed as active; i = inactive; nt = not tested or not shown.
# Values run as follows: CapD inh | AID504770
Cc1ccc(S(=O)(=O)N2C(=O)c3ccccc3C2=O)cc1
→ -0.845 | 0.7
CC(C)(C)c1ccc(-c2cc(NC(=O)c3ccccc3F)n[nH]2)cc1
→ -0.085 | 0.1
CCCOC(=O)c1ccc2c(c1)C(=O)NC2=O
→ -0.06 | 1.35
O=C(NNC(=S)Nc1cc(Cl)ccc1Cl)c1sc2ccccc2c1Cl
→ 0 | nt
N#CC1=C(N)Oc2cc(O)ccc2C1C1CCCCC1 (centres undefined)
→ nt | 0.3
Nc1ncc(S(=O)(=O)c2cccc(C(F)(F)F)c2)c(-c2ccncc2)n1
→ 0.44 | nt
CCOC(=O)CC(=O)c1cccc([N+](=O)[O-])c1
→ 0.45 | nt
CC(=O)OC1COC(n2nnc3c(NC(=O)C(F)(F)F)cccc32)C(OC(C)=O)C1OC(C)=O (centres undefined)
→ nt | 0
CCN(CC)c1nc(C)nc2c1sc1nc3c(cc12)COC(C)(C)C3
→ 0.28 | 0.35
CCOC(=O)c1cc(-c2ccc(OC(F)F)cc2)nc2nc(SC)[nH]c(=O)c12
→ nt | -0.3
CC(C)(C)c1ccc(NC(=O)CCSc2ccc3ccccc3n2)cc1
→ -0.925 | -0.25
CCn1c(COC(=O)Cc2n[nH]c(=O)c3ccccc23)nc2cc(S(=O)(=O)N(C)C)ccc21
→ nt | 1.25
COc1ccc(C(NC(=O)c2cc(OC)c(OC)c(OC)c2)c2cc([N+](=O)[O-])c3cccnc3c2O)cc1OC (centres undefined)
→ -0.72 | nt
Cc1ccc(S(=O)(=O)CCc2nnc(NC(=O)c3ccc([N+](=O)[O-])cc3)s2)cc1C
→ -0.495 | nt
COc1cccc(OC)c1C(=O)N(C(=O)c1c(OC)cccc1OC)c1oc(-c2ccco2)c(-c2ccco2)c1C#N
→ nt | 1.05
COc1cccc(C(=O)NCCSc2c[nH]c3ccccc23)c1OC
→ 0.375 | -0.25
CCOC(=O)c1ccc(NC(=O)CN(c2ccc(Cl)cc2)S(=O)(=O)c2ccc(OC)cc2)cc1
→ -0.015 | nt
O=C1NC(=O)C(=Cc2ccncc2)C(=O)N1
→ 0.9 | nt
COc1cc(C2SCCS2)cc(Br)c1OS(=O)(=O)c1ccc(C)cc1
→ 0.045 | nt
Cc1nccn1CCCN
→ nt | -1
Cc1ccc(-n2c(C)c(CC(Cl)(Cl)Cl)c3c2CC(C)(C)CC3=O)cc1Cl
→ 0.085 | nt
COc1cccc2cc(-c3csc(NC(=O)CCC(=O)NC4CCN(Cc5ccccc5)CC4)n3)c(=O)oc12
→ 1.12 | nt
O=C(O)C1CCCCC1C(=O)N1CCCCCC1 (centres undefined)
→ nt | -0.7
COc1ccc(C)cc1NC(=S)NN1CCOCC1
→ 0.105 | -0.4
CCOC(=O)c1sc(C)c2c(=O)[nH]c(-c3ccccc3)nc12
→ 0.7 | 0.8
CC(C)CNC(=O)c1nn2c(C(F)(F)F)cc(-c3cccs3)nc2c1Br
→ -1.17 | nt
CC(C)n1c(SCC(=O)N2CCc3ccccc32)nc2c1c(=O)n(C)c(=O)n2C
→ nt | -0.05
Nc1nc(SCC(=O)c2ccc(S(=O)(=O)N3CCCCC3)cc2)nc(-c2ccco2)n1
→ nt | 0.05
Cc1cc2nc(Cc3ccc4c(c3)OCO4)c(=O)[nH]c2cc1C
→ 0.76 | nt
COC(=O)C1=C(O)CC(C(=O)OC)=C(O)C1
→ nt | -0.45

# Reformatted as labelled records: entries from further up
CCOC(=O)c1cc(-c2ccc(OC(F)F)cc2)nc2nc(SC)[nH]c(=O)c12
  CapD inh = nt
  AID504770 = -0.3

CC(C)(C)c1ccc(NC(=O)CCSc2ccc3ccccc3n2)cc1
  CapD inh = -0.925
  AID504770 = -0.25

CCn1c(COC(=O)Cc2n[nH]c(=O)c3ccccc23)nc2cc(S(=O)(=O)N(C)C)ccc21
  CapD inh = nt
  AID504770 = 1.25

COc1ccc(C(NC(=O)c2cc(OC)c(OC)c(OC)c2)c2cc([N+](=O)[O-])c3cccnc3c2O)cc1OC (centres undefined)
  CapD inh = -0.72
  AID504770 = nt

# Following part.
# Values run as follows: CapD inh | AID504770
CC1(C)c2ccccc2N(c2ccccc2)C12C=Cc1cc([N+](=O)[O-])cc(CO)c1O2 (centres undefined)
→ -0.19 | nt
Nc1ccccc1NC(=S)Nc1ccccc1C(F)(F)F
→ 0.68 | -2
Cc1ccc(NC(=O)COC(=O)c2ccc3c(c2)NC(=O)C2CCCN32)cc1 (centres undefined)
→ nt | -0.95
CC(C)(C)n1nc(-c2ccc(F)cc2)c(C#N)c1N
→ -0.69 | -0.3
CCOC(=O)C1CCN(Cc2coc3ccc(Cl)cc3c2=O)CC1
→ 0.29 | 0.35
CN1C2CCC1CC(=NOC(=O)c1ccc(Cl)cc1)C2
→ 0.26 | nt
O=C(Nc1nc2ccc(Br)cc2s1)c1ccc(N2C(=O)CCC2=O)cc1
→ i | 0.05
Cn1c(N)nc(N)c(N)c1=O
→ nt | -0.55
O=C(NCC1CCN(S(=O)(=O)c2ccc(Cl)cc2)CC1)C1CCCO1 (centres undefined)
→ nt | 0.1
CC(C)Oc1ccccc1C1Nc2ccccc2C(=O)N1c1ccc2c(c1)OCCO2 (centres undefined)
→ nt | 1.6
COc1ccc(C(=O)c2ccccc2)c(OCC(=O)NC2CC2)c1
→ -0.345 | -0.5
COc1cccc(-c2nnc(-c3ccccc3NS(=O)(=O)c3ccc(Cl)cc3)o2)c1
→ 3.76 | -0.25
CC(=O)Nc1ccccc1-c1nc2ccccc2o1
→ 1.04 | 0.4
O=C(Cn1c(C(=O)N2CCN(C3CCCCC3)CC2)cc2sccc21)c1ccccc1
→ nt | -0.15
CN1c2ccccc2-c2nc(SCC(=O)Nc3ccccc3F)ncc2S1(=O)=O
→ 12.9 | -0.2
C[n+]1cccc(C(=O)NO)c1
→ 0.095 | -0.15
NC(=O)c1cc([N+](=O)[O-])cc([N+](=O)[O-])c1
→ -0.285 | -0.25
O=C(CC(NCCc1ccccc1)C(=O)O)Nc1ccc(O)cc1 (centres undefined)
→ -0.35 | 1.55
COc1cccc(NC(=O)CN(c2cccc(OC)c2)S(C)(=O)=O)c1
→ nt | -0.5
CCSc1nc2ccc(NC(=O)c3ccccc3C(=O)N3CCCCC3)cc2s1
→ 0.13 | nt
COc1ccc(Cl)cc1S(=O)(=O)NCc1ccco1
→ -0.405 | 1.9
CN(CCC#N)C(=O)c1ccc2c(c1)N(Cc1ccc(F)cc1)C(=O)c1ccccc1S2=O (centres undefined)
→ -0.15 | -0.45
NNC(=O)Nc1ccc(C(F)(F)F)cc1Cl
→ 0.39 | -0.9
Cc1ccc2nc(Cl)c(CO)cc2c1
→ nt | -0.6
CC(=O)Oc1ccc2c(=O)c(-c3cc4ccccc4o3)coc2c1
→ 0.075 | -1.05
CC1SCCN1S(=O)(=O)c1ccc2ccccc2c1 (centres undefined)
→ nt | -0.65
COCCn1c(C)cc(/C=C(\C#N)C(=O)OCc2cc(=O)n3c(n2)sc2ccccc23)c1C
→ nt | -0.2
CCC(C)c1ccc(S(=O)(=O)N2CCN(C(C)C(=O)NC3CC3)CC2)cc1 (centres undefined)
→ nt | 2.8
CCOC(=O)c1c(NC(=O)c2c(-c3ccccc3Cl)noc2C)sc2c1CCC(C)C2 (centres undefined)
→ 0.875 | nt
O=C(NNC(=O)c1ccccc1-n1cccc1)OCCc1ccc(F)cc1
→ 0.87 | nt
O=C1NN(c2ncnc3sc4c(c23)CCCC4)C(=O)c2cccc3cccc1c23
→ -0.595 | nt
Cc1cn(-c2ccccc2)nc1C(=O)Nc1nn(C)c2ccccc12
→ -0.94 | -0.15
Cc1cc(NC(=O)Cc2ccccc2)ccc1-c1cc2ccccc2oc1=O
→ 28.2 | -0.85
Cc1ccc(-c2nc(CSCC(=O)N3CCC(C(N)=O)CC3)c(C)o2)cc1
→ 0.155 | -1.35
O=C(Nc1ccc(N2CCOCC2)cc1)c1ccc(Cl)cc1Cl
→ 0.105 | nt
COc1ccc(CNC(=O)C2CCN(c3nc4cccnc4s3)CC2)c(OC)c1
→ 0.025 | 0.15
O=C(Nc1ccccc1C(F)(F)F)Nc1nccc2cccnc12
→ 0.015 | nt
N#Cc1ccc(CSc2ncnc3ccccc23)cc1
→ 0.04 | 0.25
Cc1c(NC(=O)CCN2C(=O)/C(=C/c3cccs3)SC2=S)c(=O)n(-c2ccccc2)n1C
→ -0.83 | nt
O=C(CS(=O)(=O)c1cn(Cc2ccc(F)cc2)c2ccccc12)N1CCCCC1
→ -0.92 | -0.05
Cc1nn(C)c2ncc(C(N)=O)c(Oc3ccc(Cl)cc3)c12
→ 0.075 | 0.25
O=C(C1CC1)N1CCN(c2ccc(F)cc2)CC1
→ 0.305 | -0.1
CC1(C)CC(NC(=O)CC(=O)NC2CC(C)(C)NC(C)(C)C2)CC(C)(C)N1
→ 0.72 | nt
O=C(NCc1cccnc1)C1CCCN(S(=O)(=O)c2cccc3nsnc23)C1 (centres undefined)
→ -0.3 | 1.85
CN(Cc1cccc(F)c1)C(=O)COC(=O)c1ccc2c(c1)NC(=O)CS2
→ nt | 0.05
CCCc1[nH]nc2c1C1(C(=O)Nc3ccccc31)C(C#N)=C(N)O2 (centres undefined)
→ 0.885 | nt
O=C(Nc1ccc(Cl)cc1)c1cccnc1C(=O)O
→ -0.295 | -0.05
CC1(C)OC(C)(C)/C(=C/c2c(Cl)cccc2Cl)C1=O
→ -0.38 | -0.6
CCOC(=O)c1c(NC(=O)c2cccc(Cl)c2)sc(C(=O)Nc2cccc(C(F)(F)F)c2)c1C
→ 0.08 | nt
C[C@@H]1CC[C@@]2(OC1)OC1CC3C4CC=C5C[C@@H](O)CC[C@]5(C)C4CC[C@]3(C)C1[C@@H]2C (some centres undefined)
→ nt | 0
O=C1/C(=C\c2c[nH]c3ccccc23)C(c2ccccc2)Oc2ccccc21 (centres undefined)
→ -1.71 | 0.4
CCOC(=O)Cn1c2c(sc1=O)C1c3ccccc3OCC1CS2 (centres undefined)
→ 0.045 | 1.15
O=C(O)c1ccc(Nc2nc3ccccc3nc2NS(=O)(=O)c2cccs2)cc1
→ nt | 0.1
Cc1nc(NC2CC2)c2c3c(sc2n1)CCC3
→ nt | 1.15
COc1cccc(-n2c(CC(=O)NN)csc2=NCc2ccco2)c1
→ nt | 0.75
CCCCCCCCc1ccc(-c2ccc(C(=O)OC34CCC5(CCC)CC3CCC5C4)cc2)cc1 (centres undefined)
→ -0.27 | nt
CCCC(=O)Nc1c2c(nc3ccccc13)N(Cc1ccccc1)CC2
→ nt | 0.1
C1=C(c2ccc3c(c2)c2c4n3CCNC4CCC2)CCC1 (centres undefined)
→ 0.72 | -0.95
Cc1nccc2c1[nH]c1ccccc12
→ -0.46 | nt
CCOC(=O)Nc1ccc2c(c1)ncn2C1CCCCC1
→ 0.025 | 1.05

# Entries of single compounds from above.
# Cc1ccc(-c2nc(CSCC(=O)N3CCC(C(N)=O)CC3)c(C)o2)cc1 in the list: CapD inh: 0.155; AID504770: -1.35
# Cc1c(NC(=O)CCN2C(=O)/C(=C/c3cccs3)SC2=S)c(=O)n(-c2ccccc2)n1C in the list: CapD inh: -0.83; AID504770: nt

# (next part)
# Values run as follows: CapD inh | AID504770
C(=N\c1nc2ccccc2s1)/c1cccnc1
→ 0.685 | 0.55
CCn1c2ccccc2c2cc(NC(=O)c3ccc(OC)c(OC)c3)ccc21
→ 6.7 | 3.15
COc1cc(C=Nc2ccc3c(c2)OCO3)ccc1OC(=O)c1ccco1
→ nt | -0.45
O=C(NCCc1ccccc1)c1nc2ncccn2n1
→ -0.19 | -0.75
CC1CCc2c(sc3ncnc(NS(=O)(=O)c4cccs4)c23)C1 (centres undefined)
→ nt | -0.1
COc1ccccc1NC(=O)NC(CC(=O)O)c1ccc(C)cc1 (centres undefined)
→ nt | -0.25
O=C(Nc1nc2ccccc2n1CCN1CCCCC1)c1ccccc1
→ nt | 2.2
Cc1cccc(OCc2nnc(SCc3nc4ccccc4c(=O)n3CC#N)o2)c1
→ nt | 0.3
Cc1ccc(S(=O)(=O)NC(=O)N2CCN(Cc3cccc(Cl)n3)CC2)cc1
→ -0.54 | nt
CCOC(CNC(=O)c1cccc(NC(=O)C(c2ccccc2)c2ccccc2)c1)(OCC)c1ccccn1
→ 0.41 | nt
Cc1sc(-c2cccnc2)nc1OC(=O)c1cccc(Cl)c1Cl
→ -0.145 | nt
Cc1ccc(-c2nn[nH]n2)cc1Cl
→ -0.435 | nt
O=C(CSc1nnc(-c2ccccc2)o1)c1cccc(C(F)(F)F)c1
→ nt | 0.05
CC(Oc1ccccc1)C(=O)N(CC#N)CC#N (centres undefined)
→ 0.56 | -0.4
O=C1Nc2ccccc2N(O)N1c1nccs1
→ 5.09 | 1.75
COC(=O)/C(C#N)=C1/C=Cc2ccccc2N1
→ nt | 0.7
Fc1ccc(N(Cc2nc3ccccc3[nH]2)Cc2nc3ccccc3[nH]2)cc1
→ 0.105 | 1
CC(=O)N1CCc2c(sc3nc(SCc4ccc(C)cc4)n(Cc4ccco4)c(=O)c23)C1
→ 1.44 | 0.05
COc1ccc(/C=C2/C(=O)NC(=O)N(c3ccc(Br)cc3)C2=O)c(OC)c1
→ -0.265 | nt
c1ccc(CSc2nnc(-c3ccco3)c(-c3ccco3)n2)cc1
→ -1.92 | 0.5
Cc1ccc(NC(=O)N(CCc2ccncc2)C(C)C)cc1C
→ -1.16 | 0.6
CSc1nnc(-c2cc(N(C)C)nc(N(C)C)n2)n1C
→ 16.2 | nt
Clc1nc(-c2cccs2)nc2ccccc12
→ nt | 0.2
CCOC(=O)C1=C(N)Oc2c(c(=O)oc3ccccc23)C1c1cc([N+](=O)[O-])cs1 (centres undefined)
→ -0.075 | nt
CCOc1ccc(NC(=O)CNc2ccc(S(=O)(=O)N(C)C)cc2)cc1OCC
→ nt | -1.6
CCOC(=O)N1CCN(C(=O)CNC2CCCC(C)C2C)CC1 (centres undefined)
→ nt | 0.1
CN1CCN(c2nc(-c3ccccc3)nc(-c3ccccc3)c2C#N)CC1
→ 0.41 | nt
COc1ccc(-c2cc(C(F)(F)F)n3nc(C(=O)Nc4ccc5c(c4)OCO5)cc3n2)cc1
→ -0.3 | nt
O=C(O)CCN1c2cccc3cccc(c23)S1(=O)=O
→ nt | -0.55
